# RanGTP-Imp inh = inhibitors of RanGTP-importin-beta interaction, primary screen, biochemical, FRET, CFP-Ran, YFP-importin-beta, homogeneous; cell-free CFP-Ran/YFP-importin-beta FRET ratio; inhibition, % (test concentration not listed); hit rate 1.1% among 300,000; AID 2216;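 active = most replicates above 15%; inconclusive = exactly half above 15%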;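 also: 0% = DMSO wells and 100% = Ran loaded with GDP instead of GTP; wells of about 40 µL received 100 nL stock; the first replicate is given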
# T cruzi repl = blocks replication of Trypanosoma cruzi | T. cruzi beta-gal in NIH3T3, luminescence, 90 h | inhibition, % (test concentration not listed) | hit rate 1.4% among 300,000 | AID 1885;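 active = mean inhibition across valid replicates above about 55%, limit read from the data; inconclusive = mean below that limit but half or more replicates reach it; inactive = mean below it, under half of replicates reach it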;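 also: signal also drops with host cell toxicity which is not excluded here; 0% = plate median of DMSO wells and 100% = zero luminescence signal; higher percent means less beta-gal luminescence so fewer parasites; stock transfer was 50 nL into about 50 µL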
# FGF22 binding = shifts melting point of recombinant human FGF22; recombinant FGF22 thermal shift, SYPRO orange fluorescence; percent of sucrose octasulfate shift, DMSO zero; calls only at 9.99 µM; hit rate 1.5% among 340,000;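 active = melting point raised past a set limit in the mean and every replicate; inconclusive = no clear call; three in four hits are not shown here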
# Calb FLC = affects C. albicans growth with fluconazole; hit rate 0.57% among 300,000; AID 1979; C. albicans CaCi-2 (fluconazole-resistant clinical isolate) + fluconazole, Alamar Blue growth, 48 h; growth inhibition, % (no concentration beside the values);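 active = most replicates above 75%; inconclusive = exactly half above 75%; inactive = most below 75%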;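 also: all wells also contain fluconazole at 8 µg/ml as a sub-toxic cotreatment; 0% = median of DMSO wells and 100% = median of geldanamycin control wells; wells of about 8 µL received 7.5 nL stock; the first replicate is given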
# ALR inh = inhibitors of human sulfhydryl oxidase ALR; purified ALR, DTT oxidation, H2O2 HRP-luminol luminescence; P55789; hit rate 3.8% among 290,000; inhibition, % (concentration not given with the values);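 active = mean and each replicate at 75% or more; inconclusive = only one of the two met; inactive = neither met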;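 also: stock transfer was 7.5 nL into about 7.5 µL; 0% = neutral wells and 100% = wells with inactivated enzyme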
# Target sequence (P55789 whole entry, looked up): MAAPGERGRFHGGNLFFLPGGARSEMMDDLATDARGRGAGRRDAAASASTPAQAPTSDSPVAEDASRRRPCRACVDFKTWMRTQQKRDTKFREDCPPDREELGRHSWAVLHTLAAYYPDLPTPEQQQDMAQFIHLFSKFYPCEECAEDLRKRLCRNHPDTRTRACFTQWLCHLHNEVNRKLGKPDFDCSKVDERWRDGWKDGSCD
# rRNA inh HTS = selective bacterial rRNA inhibition in E. coli; AID 720706; E. coli WT GFP vs humanized-ribosome RFP mutants, fluorescence, 24 h; stronger effect = lower value; DMSO median 0, no signal -100; hit rate 1.6% among 350,000; GFP signal change (wild-type ribosome), % (concentration not given with the values);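 active = significant combined selectivity score with lowered wild-type GFP, culture density cut under 30%, mutant RFP and density less affected; inactive = any of these conditions unmet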; also: one replicate is shown; some compounds called inactive have numbers as strong as hits
# AF4-AF9 inh = inhibitors of human MLL-AF4/AF9 interaction. AlphaScreen, biotin-AF4 peptide binding to FLAG-AF9. hit rate 0.47% among 350,000. AID 651704. inhibition, % at 10 µM. P42568;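 active = every replicate reaching a set inhibition limit, whatever the replicate mean, cut at about 25% in these data; inconclusive = mean inhibition reaches that limit but some replicates miss it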;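 also: 0% = plate neutral control median and 100% = total signal loss; the record names both 10 and 1 µM as test concentration; the first replicate is given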
# Target sequence (P42568 whole entry, looked up): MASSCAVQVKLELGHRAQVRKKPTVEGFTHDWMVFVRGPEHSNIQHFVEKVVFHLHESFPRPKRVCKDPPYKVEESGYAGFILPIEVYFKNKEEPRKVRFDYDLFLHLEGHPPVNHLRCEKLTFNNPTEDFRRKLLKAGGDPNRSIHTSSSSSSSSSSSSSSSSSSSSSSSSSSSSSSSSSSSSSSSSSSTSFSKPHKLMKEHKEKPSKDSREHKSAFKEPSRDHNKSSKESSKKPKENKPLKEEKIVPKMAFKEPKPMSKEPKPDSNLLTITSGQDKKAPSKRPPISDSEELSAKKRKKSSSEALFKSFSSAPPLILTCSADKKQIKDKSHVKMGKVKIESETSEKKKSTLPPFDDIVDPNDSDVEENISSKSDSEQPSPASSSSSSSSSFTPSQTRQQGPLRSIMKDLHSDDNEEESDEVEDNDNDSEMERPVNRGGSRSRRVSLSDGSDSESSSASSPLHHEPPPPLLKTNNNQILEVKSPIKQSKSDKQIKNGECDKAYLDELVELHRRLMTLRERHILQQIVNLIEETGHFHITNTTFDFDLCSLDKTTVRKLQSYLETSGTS
# Beta cell apopt = beta cell apoptosis inhibition. INS-1E cytokine-induced death, ATP luminescence, 48 h; percent of positive-control rescue, neutral wells zero. hit rate 0.8% among 300,000. protection from apoptosis, % (concentration not given with the values);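 active = all replicates at 75% or more, or half of them and the mean; inconclusive = half reach 75% but not the mean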;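 also: 0% = cytokine-treated negative control wells and 100% = positive control rescue; higher means more ATP so stronger rescue from cytokine killing; wells of about 40 µL received 100 nL stock; the first replicate is given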
# rRNA inh HTS OD600 = recorded beside rRNA inh HTS, whose call it bears; OD600 change, %; measured here: OD600 growth;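 optical density of the mix in the first replicate; 0 = DMSO median and -100 = no signal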
# rRNA inh HTS RFP = second read-out of rRNA inh HTS, no call of its own (marks repeat the call); RFP signal change, %; measured here: RFP humanized mutant strains;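 first replicate; 0 = DMSO median and -100 = no signal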
# An asterisk follows results filed as active; i = inactive; u = inconclusive; x = no result given. Only part of the results is shown; rates above refer to the full screens.
SMILES,RanGTP-Imp inh,T cruzi repl,FGF22 binding,Calb FLC,ALR inh,rRNA inh HTS,rRNA inh HTS OD600,rRNA inh HTS RFP,AF4-AF9 inh,Beta cell apopt
CCOC(=O)C(CSCc1ccccc1)NC(=O)OC(C)(C)C (stereo not drawn),-5.7,6.8,x,-6.3,1.1,x,x,x,x,x
Cn1nnnc1SCC(=O)N1CCN(S(=O)(=O)c2ccccc2)CC1,-2.1,-11.2,i,-3.6,-1.4,16.9,16.2,4.6,0.4,-2.0
COc1ccc(Nc2cc(Sc3ccc(OC)cc3)ncn2)cc1,4.9,10.6,i,16.1,1.1,-53.9,-74.9,-16.4,1.7,-12.6
Cn1nccc1/C=C(/C#N)S(=O)(=O)c1ccccc1,3.0,-7.2,x,-6.5,10.6,x,x,x,x,-5.0
CCCCCC(=O)O/N=C(\C)c1ccn(S(=O)(=O)c2ccccc2)c1,1.6,1.5,i,0.5,10.3,11.3,5.0,-0.7,1.3,-3.2
Cn1c(SCC(=O)Nc2sccc2C#N)nnc1C1CC1,x,x,i,x,14.7,8.8,7.8,1.8,-1.4,-3.9
O=C(NNC(=O)c1ccc(Cl)c(Cl)c1)c1cccnc1,-4.7,9.1,i,-10.2,-1.0,3.0,6.7,1.0,-1.5,3.0
CCCN1CCC(=O)N([C@H](CN=[N+]=[N-])Cc2ccccc2)CC1,3.6,15.2,i,-0.6,1.3,12.9,10.3,-2.3,42.8*,-3.6
CCCCOC(=O)Nc1ccc(S(=O)(=O)Nn2cnnc2)cc1,-14.9,-12.2,x,-4.0,0.3,x,x,x,x,0.7
CCc1cc2cccc(C)c2nc1SCC(=O)N1CCN(C(=O)c2ccco2)CC1,4.5,11.4,x,-5.3,-2.9,x,x,x,x,1.4
CCCOc1ccc(-c2c(C(=O)N/N=C/c3ccc(OC)cc3)nnn2-c2nonc2N)cc1,-3.3,-5.2,x,-6.7,x,x,x,x,x,-3.9
COc1cccc(-c2noc(CCCC(=O)NC3CCCC3)n2)c1,1.9,-1.0,i,-2.5,-3.8,1.5,-4.5,-5.3,0.4,x

# Only RanGTP-Imp inh and FGF22 binding, for seven of the compounds above:
Molecule	RanGTP-Imp inh	FGF22 binding
COc1cccc(-c2noc(CCCC(=O)NC3CCCC3)n2)c1	1.9	i
Cn1c(SCC(=O)Nc2sccc2C#N)nnc1C1CC1	x	i
CCCOc1ccc(-c2c(C(=O)N/N=C/c3ccc(OC)cc3)nnn2-c2nonc2N)cc1	-3.3	x
CCOC(=O)C(CSCc1ccccc1)NC(=O)OC(C)(C)C (stereo not drawn)	-5.7	x
Cn1nccc1/C=C(/C#N)S(=O)(=O)c1ccccc1	3.0	x
CCCN1CCC(=O)N([C@H](CN=[N+]=[N-])Cc2ccccc2)CC1	3.6	i
Cn1nnnc1SCC(=O)N1CCN(S(=O)(=O)c2ccccc2)CC1	-2.1	i

# (cont.)
SMILES,RanGTP-Imp inh,T cruzi repl,FGF22 binding,Calb FLC,ALR inh,rRNA inh HTS,rRNA inh HTS OD600,rRNA inh HTS RFP,AF4-AF9 inh,Beta cell apopt
CC(=O)c1c(C)[nH]c(C(=O)CN2C(=O)NC(C)(CCC(C)C)C2=O)c1C (stereo not drawn),-0.8,-6.4,i,20.4,x,-9.0,-17.4,13.2,-7.1,-7.0
CCc1ccc(NC(=S)N2CCNC(=O)C2CC(=O)OC)cc1 (stereo not drawn),2.4,-4.5,i,u,-19.7,16.9,21.2,2.5,-2.7,-4.6
Nc1nc(CN2CCN(c3ccccc3)CC2)nc(Nc2ccc(Cl)cc2)n1,-2.1,-14.0,i,39.0,u,-31.2,-35.2,1.7,13.7,-2.5
O=C(NCCOc1cccnc1)c1ccc(OC2CCN(Cc3ccccn3)CC2)cc1,0.9,-37.8,i,-7.7,-5.2,7.1,6.5,0.4,1.5,120.2*
O=C(N=Nc1c(O)[nH]c2ccccc12)c1ccc2c(c1)OCO2,2.7,-1.7,i,43.5,-1.0,12.8,11.5,0.6,-1.7,28.6
COc1ccc(Cl)cc1NC(=O)CN1C(=O)CC(C)S(=O)(=O)c2ccccc21 (stereo not drawn),-4.1,-2.7,i,2.0,39.9,-13.6,-18.1,-7.5,-0.1,-3.8
CCn1c(Cc2ccccc2)nnc1SCC(=O)OC(C)C,5.6,-6.3,i,-25.9,3.4,0.5,-19.3,0.2,-21.5,2.4
Cc1cc(O)ccc1Nc1nc2ccccc2nc1Nc1ccc(O)cc1C,37.3*,-4.3,x,38.1,43.5,x,x,x,x,1.2
CCCC(=O)NC(c1cccs1)c1cc([N+](=O)[O-])c2cccnc2c1O (stereo not drawn),-1.3,4.1,i,39.7,-28.9,12.9,6.4,8.2,11.5,60.6
CCOC(=O)c1[nH]c2cc(OC)c(OC)cc2c1N,-31.9,-10.9,x,5.2,27.6,x,x,x,x,-4.4
COc1cc(C(=O)NNC(=O)C2CCC2)cc(OC)c1OC,x,x,i,x,x,3.7,16.5,1.4,1.9,2.2
COCC(O)CNc1ccccc1 (stereo not drawn),-5.5,-18.9,i,-23.4,5.0,19.6,16.6,-6.3,2.0,2.7

# Compound profiles, from the list above. Order of screens: RanGTP-Imp inh	T cruzi repl	FGF22 binding	Calb FLC	ALR inh	rRNA inh HTS	rRNA inh HTS OD600	rRNA inh HTS RFP	AF4-AF9 inh	Beta cell apopt
# COCC(O)CNc1ccccc1 (stereo not drawn) reads -5.5	-18.9	i	-23.4	5.0	19.6	16.6	-6.3	2.0	2.7
# CCn1c(Cc2ccccc2)nnc1SCC(=O)OC(C)C reads 5.6	-6.3	i	-25.9	3.4	0.5	-19.3	0.2	-21.5	2.4
# Nc1nc(CN2CCN(c3ccccc3)CC2)nc(Nc2ccc(Cl)cc2)n1 reads -2.1	-14.0	i	39.0	u	-31.2	-35.2	1.7	13.7	-2.5
# O=C(N=Nc1c(O)[nH]c2ccccc12)c1ccc2c(c1)OCO2 reads 2.7	-1.7	i	43.5	-1.0	12.8	11.5	0.6	-1.7	28.6

# The list continues.
SMILES,RanGTP-Imp inh,T cruzi repl,FGF22 binding,Calb FLC,ALR inh,rRNA inh HTS,rRNA inh HTS OD600,rRNA inh HTS RFP,AF4-AF9 inh,Beta cell apopt
Clc1ccc(CN2C3=NCCN3c3ccccc32)cc1,1.5,10.4,x,-3.0,x,x,x,x,x,14.7
CCC(C)N(C(=O)COC(=O)CN=C1NS(=O)(=O)c2ccccc21)C1CCS(=O)(=O)C1 (stereo not drawn),x,x,i,x,-3.1,4.7,7.1,-1.8,1.1,5.3
NC(=O)c1nc[nH]c1C(=O)Nc1cccc(C(F)(F)F)c1,x,x,i,x,3.0,-1.9,-8.7,-0.8,-1.5,4.3
O=C(NCc1nc2ccccc2[nH]1)c1cccs1,-3.0,-7.9,i,-8.1,-10.1,4.6,6.8,-0.5,1.6,-2.3

# Exported bar-delimited: entries from further up.
SMILES | RanGTP-Imp inh | T cruzi repl | FGF22 binding | Calb FLC | ALR inh | rRNA inh HTS | rRNA inh HTS OD600 | rRNA inh HTS RFP | AF4-AF9 inh | Beta cell apopt
Cn1c(SCC(=O)Nc2sccc2C#N)nnc1C1CC1 | x | x | i | x | 14.7 | 8.8 | 7.8 | 1.8 | -1.4 | -3.9
O=C(NNC(=O)c1ccc(Cl)c(Cl)c1)c1cccnc1 | -4.7 | 9.1 | i | -10.2 | -1.0 | 3.0 | 6.7 | 1.0 | -1.5 | 3.0
